PINK1 expr mod: PINK1 expression modulation; PINK1 immunofluorescence, high-content cytometry, 24 h; Potency, µM (titrated, usually from 76.6 µM), for inactives: top-dose activation (PINK1 increase), usual class: activators; 410,000 tested, 0.2% active; active = well fitted activation curve with a large enough effect; inconclusive = small, poorly fitted or top-dose-only effect; inactive = flat fitted curve, though single readings scatter; cell line not stated here;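 also: potency is read from the fitted curve at half-maximal effect; % of control where 0% means no effect; nearly all actives have a fitted effect of over 65% in size; a mitochondrial uncoupler was the plate control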
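Stable cell line, 250 cells/well, 12 h attachment; compounds pinned at 5 concentrations, 24 h; CCCP control. Fixed with nuclear dye, primary antibodies 12 h at 10 degrees C, secondary plus cell stain; laser-scanning cytometer read.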
Menin MLL FP FL: menin-MLL binding inhibition, fluorescein peptide; AID 1766; 290,000 tested, under 10 active; Fluorescence polarization, fluorescein-MLL peptide displacement from menin; FP activity change, % at 61.4 µM; inconclusive = falling polarisation curve, or a change in total fluorescence; inactive = total fluorescence flat and polarisation flat or rising; no compound was filed as active; the % refers to the polarisation; negative = inhibition;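 also: % of control where 0% means no effect; inhibitors lower the polarisation; unlabelled MLL peptide was the positive control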
D2 agonist: agonists of human D2 dopamine receptor (beta-arrestin) | DiscoveRx PathHunter D2 beta-arrestin, luminescence, 90 min; 100% = 57 uM dopamine signal | activation, % (test concentration not listed) | P14416 | AID 624465 | 360,000 tested, 0.084% active; in the data active = activation above about 40%; inconclusive = about 15% to 40%; inactive = below about 15%; also: compound concentration not given in the record; the text of the record calls up to 30% inactive
Target sequence (P14416 whole entry, looked up): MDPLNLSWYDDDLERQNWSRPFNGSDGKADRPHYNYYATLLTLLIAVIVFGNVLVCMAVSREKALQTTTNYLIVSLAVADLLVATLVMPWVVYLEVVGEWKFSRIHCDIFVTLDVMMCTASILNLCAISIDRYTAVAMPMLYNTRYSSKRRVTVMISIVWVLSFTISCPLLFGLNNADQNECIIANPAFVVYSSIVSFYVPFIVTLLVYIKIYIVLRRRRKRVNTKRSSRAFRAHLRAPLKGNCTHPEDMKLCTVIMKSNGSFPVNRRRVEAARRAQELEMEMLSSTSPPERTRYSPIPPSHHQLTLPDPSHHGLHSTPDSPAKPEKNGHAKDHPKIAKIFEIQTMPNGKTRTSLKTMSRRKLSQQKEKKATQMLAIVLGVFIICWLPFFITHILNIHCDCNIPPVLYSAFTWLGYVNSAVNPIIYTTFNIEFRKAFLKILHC
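DiscoveRx PathHunter D2 beta-arrestin cells (2,100/well) attached overnight, then compound-stimulated 90 min at 37 C in HBSS/10 mM HEPES/0.1% Tween-20 buffer; beta-galactosidase complementation read by luminescence after 1 h at ambient temperature. Dopamine 57 uM final (EC100) as control.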
ClpP mod: qHTS Assay for Activators of ClpP; purified B. subtilis ClpP, FRET peptide cleavage, 20 min; 340,000 tested, 1.9% active; Potency, µM (series often up to 57.5 µM), inactives show at the highest dose activity change, negative = active; ATP-dependent Clp protease proteolytic subunit (Bacillus subtilis (strain 168)), P80244; AID 651965, 2013; active = well fitted falling curve with a large enough effect; inconclusive = small, poorly fitted or top-dose-only effect; inactive = no such curve, though single readings can be large or run the other way; also: potency is read from the fitted curve at half-maximal effect; the source files actives as falling curves though it sought activators and does not explain the sign; nearly all actives have a fitted effect of over 65% in size; many hits overshoot -100%
Target sequence (P80244 whole entry, looked up): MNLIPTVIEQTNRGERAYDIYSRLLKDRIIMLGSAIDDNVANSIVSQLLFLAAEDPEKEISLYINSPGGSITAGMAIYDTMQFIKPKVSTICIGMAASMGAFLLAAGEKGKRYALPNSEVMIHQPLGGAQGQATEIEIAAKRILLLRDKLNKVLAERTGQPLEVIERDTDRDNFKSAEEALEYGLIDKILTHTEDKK
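Buffer: 100 mM Tris/HCl pH8, 100 mM KCl, 0.05% low protease BSA, 2.5% glycerol, 0.01% Tween-20. ClpP 10 microg/mL final; 20 min RT; delta FRET normalized to ADEP and DMSO controls.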
Sfp PPTase inh: inhibitors of Bacillus subtilis Sfp phosphopantetheinyl transferase. 310,000 tested, 3.5% active. Biochemical Sfp PPTase activity, qHTS. Potency, µM, for the others: max response, negative = inhibition, most hits filed as inhibitors; active = well fitted inhibition curve with a large enough effect; inconclusive = small, poorly fitted or top-dose-only effect, or another doubt; inactive = no such curve, though single readings can be large or run the other way;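 also: the enzyme is Sfp with the accession as filed and its product quenches rhodamine fluorescence; potency is read from the fitted curve at half-maximal effect; 0% = enzyme reaction without inhibitor and -100% = no enzyme wells; top concentration of the series not given in the record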
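Step 1, compound plus 15 nM Sfp-PPTase, 15 min, room temperature. Step 2, add rhodamine-CoA (5 uM) and BHQ-2-YbbR (12.5 uM). Step 3, read 525/598 nm fluorescence at 0 and 30 min.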
gsp agonist: activates gsp, the McCune-Albright syndrome mutation; gsp mutant cells, cAMP HTRF, 30 min; control for the full effect not named in the record; Potency, µM (top dose mostly 76.9 µM), without a hit: at the highest dose activation (cAMP increase), hits mostly activators; 340,000 tested, 0.13% active; AID 624287; active = well fitted activation curve with a large enough effect; inconclusive = small, poorly fitted or top-dose-only effect, or another doubt; inactive = no such curve, though single readings can be large or run the other way; cell line not stated here;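 also: phosphodiesterase inhibitor Ro 20-1724 added with compounds to block cAMP breakdown; potency is read from the fitted curve at half-maximal effect; nearly all actives have a fitted effect of over 60% in size; about a fifth of the inactives were tested at one dose only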
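Cells stably selected in G418 were plated at 2000/well, grown 16-24 hr, then given compounds in DMSO with the PDE inhibitor […] (300 uM solution added) for 30 min at 37C; cAMP was read by HTRF.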
gsp antagonist: gsp mutant antagonism; gsp-mutant cells, cAMP HTRF, 30 min; control for the full effect not named in the record; Potency, µM (highest dose often 76.9 µM), inactives show at the highest dose activity change, negative = inhibition, actives largely listed as inhibitors; 340,000 tested, 0.4% active; active = falling curve of any shape with a large fitted effect; inconclusive = falling curve, mostly with a smaller effect; inactive = flat or rising curve; cell line not stated here;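 also: intracellular cAMP measured with PDE inhibitor Ro 20-1724 present during compound exposure; potency is read from the fitted curve at half-maximal effect; % is scaled to controls: 0 for no effect and ±100 for the full control effect; nearly all actives have a fitted effect of over 65% in size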
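G418-selected cells were plated in DMEM/10% FBS for 16-24 h at 37C, then treated with compounds plus the PDE inhibitor […] (300 uM solution added) for 30 min at 37C. Intracellular cAMP was measured by HTRF after 30 min lysis at room temperature.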
* hit, by the source's call; u = inconclusive; x = no result given; [ ] = another dose, or the depositor's remark.

Order of results: PINK1 expr mod, Menin MLL FP FL, D2 agonist, ClpP mod, Sfp PPTase inh, gsp agonist, gsp antagonist
COc1ccc(NC(=O)N(C)C[C@H]2OCCCC[C@@H](C)Oc3ccc(NC(=O)c4ccccc4)cc3C(=O)N([C@H](C)CO)C[C@@H]2C)cc1
 : 2.4%, x, -1.6, -4.8%, x, u, x
Cc1cccc(NC(=O)N2CCC(c3nc4ccccc4o3)CC2)c1
 : -5.3%[38.3 µM], 5.0, -1.9, 1.0%, 5.3%, u, -9.6%
CC(=O)Nc1cccc(Oc2ccc3c(c2)C(=O)N(CCC(=O)O)C3=O)c1
 : -1.9%, 1.7, -2.7, 4.6%, -7.3%, -17.2%, 1.5%
O=C(CCS(=O)(=O)c1ccc(F)cc1)Nc1nc(-c2ccccn2)cs1
 : -0.3%, -1.9, -1.4, -1.6%, -11.2%, 16.4%, 6.4%
O=c1c2c([N+](=O)[O-])cc([N+](=O)[O-])cc2nc2ccccn12
 : -0.6%, -1.1, u, 1.3%, -9.3%, -14.1%, -1.3%
CC(C)(C)NS(=O)(=O)CC12CCC(CC1=O)C2(C)C (stereo unspecified)
 : -0.4%, -0.6, -0.5, 0.6%, 1.6%, -12.5%, 13.3%
O=C(CN1CCCC1)N1c2ccccc2Sc2ccc(C(F)(F)F)cc21
 : 6.9%, 5.0, 0.1, -3.0%, -8.5%, -31.3%, 1.4%
O=C(Cn1nnc2ccccc21)Nc1ccccc1[N+](=O)[O-]
 : -0.4%, 0.9, 2.6, x, 10.1%, -63.6%[15.4 µM], u
O=C(c1cnccn1)N1CCc2c([nH]c3ccccc23)C1c1cccc(Cl)c1 (stereo unspecified)
 : 1.7%, -5.8, 1.7, -0.2%, 4.4%, u, -11.9%
CC/C(=N\NC(=O)C1CC1)c1cccc(Cl)c1
 : -1.4%, -0.6, 2.2, -2.2%, 14.8%, -9.8%, 1.2%
O=C(NNC(=O)C1CC2CCC1C2)c1sc2ccccc2c1Cl (stereo unspecified)
 : 0.6%, 1.6, 0.2, 0.8%, 13.6%, 0.0%, 0.4%
CC1=C(C(=O)N(C(C)C)C(C)C)CC(CC(=O)NCCCCc2ccccc2)C(=O)N1Cc1ccc(C(C)(C)C)cc1 (stereo unspecified)
 : u, x, -6.9, -4.3%, x, x, x
COc1ccccc1-n1c(SCC(=O)Nc2cccc(C(=O)O)c2)nnc1-c1ccccc1O
 : -0.5%, 0.7, -1.6, -1.3%, 30.5%, 2.6%, 5.9%
COC(=O)C1=C(C)Nc2nc(SCc3ccccc3)[nH]c(=O)c2C1c1cccs1 (stereo unspecified)
 : 2.4%, 2.0, -2.4, -9.8%, 3.2%, -49.1%[inhibitor], 1.2%
COc1ccc(C2Nc3ccccc3C(=O)N2NS(=O)(=O)c2ccc(C)cc2)c(OC)c1 (stereo unspecified)
 : 1.3%, -6.4, -2.9, x, 17.2%, -25.0%, -11.3%
Cc1ccc(N(C(C)C(=O)Nc2ccccc2C(=O)N2CCOCC2)S(C)(=O)=O)cc1C (stereo unspecified)
 : -3.2%, 1.7, -4.4, -1.9%, 6.7%, 44.7%, 2.2%
Cn1c(CNc2ccc(Cl)cc2)nnc1SCCN1CCCCC1
 : -0.9%, 0.2, -3.7, 2.1%, 22.7%, -13.8%, 4.5%
Cc1ccccc1-n1nc(CSc2nc3ccccc3[nH]2)c(-c2ccccc2)c1N
 : -2.2%, 10.3, 2.3, 1.3%, 21.0%, -34.0%[inhibitor], u
Cc1cccc(C)c1OCC(=O)NNC(=O)CCNC(=O)c1ccco1
 : -0.4%, x, -3.8, -2.0%, x, u, 6.8%
O=C1[C@H]2[C@@H](c3ccc(F)cc3)N3C(=O)N(c4cccc(Cl)c4)C(=O)[C@@]3(Cc3ccc(Cl)cc3)[C@H]2C(=O)N1C1CCCCC1
 : 2.0%, -4.6, -1.7, -1.3%, 15.9%, u, u
CNC(C)C(=O)NC(C(=O)NC(C)C(=O)Nc1cccc2ccccc12)C(C)C (stereo unspecified)
 : 2.0%, x, -2.4, u, x, x, x
O=S(=O)(NCCSc1nc2ccccc2o1)c1ccccc1
 : -0.3%, 0.6, -0.6, 1.4%, -4.7%, 29.5%, -4.2%
c1ccc(CNc2c3c(nc4ncnn24)CCCC3)nc1
 : -2.3%, -0.4, -2.4, -0.1%, -14.2%, 22.7%, -1.2%
CO/N=C/C=C1/N(C)c2ccccc2C1(C)C
 : 1.8%, 0.7, -3.4, -5.8%, 13.5%, 0.3%, 6.3%
O=C(Cn1cnc2c(NCc3ccccc3)ncnc21)NCCc1cc2ccccc2[nH]1
 : 1.4%, x, -1.8, -1.9%, x, x, 2.4%
Cc1ccc(S(=O)(=O)Nc2c(C)n(C)n(-c3ccccc3)c2=O)cc1C(=O)NCc1ccccc1
 : 1.5%, x, -1.4, -1.5%, x, u, -2.7%
COc1ccc(/C=C/C(=O)Oc2cc(O)cc(O)c2)cc1
 : 2.3%, 7.0, -3.2, x, -19.4%, 3.0%, 7.6%
Cc1cc(NC(=O)CON=C(N)CC(=O)Nc2ccccc2Cl)ccc1Br
 : 1.0%, x, -3.1, 0.1%, x, -6.6%[15.4 µM], -10.2%
CCOc1ccc2nc(Cl)c(C3CC(c4ccccc4)=NN3C(=O)c3cccs3)cc2c1 (stereo unspecified)
 : 15.6%, 5.8, -5.6, 0.8%, u, -72.8%[inhibitor], 8.3%
CC(C)(C)OC(=O)N(CC1CCNCC1)C(=O)c1[nH]c(C(F)(F)F)nc1-c1ccccc1
 : -0.3%, x, -3.9, -1.5%, x, x, x

Molecules listed so far containing an aryl methoxy group, in the order listed:
Order of results: PINK1 expr mod, Menin MLL FP FL, D2 agonist, ClpP mod, Sfp PPTase inh, gsp agonist, gsp antagonist
COc1ccc(NC(=O)N(C)C[C@H]2OCCCC[C@@H](C)Oc3ccc(NC(=O)c4ccccc4)cc3C(=O)N([C@H](C)CO)C[C@@H]2C)cc1
 : 2.4%, x, -1.6, -4.8%, x, u, x
COc1ccccc1-n1c(SCC(=O)Nc2cccc(C(=O)O)c2)nnc1-c1ccccc1O
 : -0.5%, 0.7, -1.6, -1.3%, 30.5%, 2.6%, 5.9%
COc1ccc(C2Nc3ccccc3C(=O)N2NS(=O)(=O)c2ccc(C)cc2)c(OC)c1 (stereo unspecified)
 : 1.3%, -6.4, -2.9, x, 17.2%, -25.0%, -11.3%
COc1ccc(/C=C/C(=O)Oc2cc(O)cc(O)c2)cc1
 : 2.3%, 7.0, -3.2, x, -19.4%, 3.0%, 7.6%

Going on with the list:
Order of results: PINK1 expr mod, Menin MLL FP FL, D2 agonist, ClpP mod, Sfp PPTase inh, gsp agonist, gsp antagonist
COc1ccc(N(CC(=O)Nc2cc(C)on2)S(=O)(=O)c2cc(C)ccc2C)cc1
 : -5.1%[38.3 µM], u, -2.1, -7.4%, -1.2%, 8.5%, -22.9%
Fc1ccc(-c2nnc3n2CCCCC3)cc1
 : -1.0%, -1.6, -5.0, x, 2.0%, -7.9%[15.4 µM], 2.2%
O=C1NC(=O)C(CC(=O)N(c2ccccc2)C2(C(=O)NC3CCCC3)CCCCC2)N1 (stereo unspecified)
 : -0.9%, 2.1, -1.4, -1.2%, 14.6%, 3.1%, 3.0%
O=C(C#Cc1ccccc1)c1ccc([N+](=O)[O-])cc1
 : -2.5%, 0.6, -2.1, 1.0%, -5.4%, 6.5%[15.4 µM], 4.4%
CC1(C)CC(=O)C2=C(C1)OC(N)=C(C#N)C2C#Cc1ccccc1 (stereo unspecified)
 : 4.6%, u, -3.6, 3.9%, u, u, -14.8%
NC(=O)CNc1n[nH]c(=S)[nH]c1=O
 : -0.8%, -2.8, -1.1, x, 79.4µM*, 26.1%, 6.7%
CCNC(=O)C(=O)NCCC1CCCCN1S(=O)(=O)c1cccs1 (stereo unspecified)
 : -1.3%, x, 1.8, -1.8%, x, -9.1%[15.4 µM], 10.4%
COc1ccc(CC2(CO)CCN(Cc3ccc(OC(F)(F)F)cc3)CC2)cc1
 : 2.0%, -1.8, 0.5, x, 8.9%, 4.5%, 10.5%
O=C(NCc1cccc(Br)c1)C1CC(c2ccccc2[N+](=O)[O-])=NO1 (stereo unspecified)
 : 1.7%, x, 1.7, -4.4%, x, -0.4%, -3.3%
CCCCn1c(=NC(=O)c2ccc3c(c2)OCO3)c(C#N)cc2c(=O)n3cccc(C)c3nc21
 : -1.3%, 9.3, 0.3, 31.6µM*, 10.1%, 1.8%, -2.9%
COc1ccc(-c2c(NC(=O)c3ccco3)n(C)c3ccccc3c2=O)cc1
 : 16.7%[38.3 µM], 0.9, -2.7, -14.2%, 21.6%, 0.1%, -2.7%
Cc1c(Cl)cccc1NC(=S)N1CCCCCC1
 : 0.1%, 1.0, -1.3, -1.5%, 4.5%, 16.2%, 6.9%
O=S(=O)(c1ccc2oc3ccc(S(=O)(=O)N4CCCCC4)cc3c2c1)N1CCCCC1
 : 2.7%, 2.8, -4.4, 0.7%, 18.3%, -49.2%[inhibitor], -7.1%
COC(=O)N1c2ccccc2C=Cc2ccccc21
 : -0.8%, 1.5, -6.7, 1.3%, 11.3%, -1.5%[15.4 µM], -2.9%
Cc1nn(Cc2ccc(Cl)cc2)c(C)c1NC(=O)/C=C/c1cnn(C)c1
 : 2.2%, -0.5, -1.5, -9.3%, 6.9%, u, 6.2%
CCOC(=O)c1cccc(OCC(O)CNCCOc2ccccc2F)c1 (stereo unspecified)
 : 12.6%, 3.5, 47.3*, x, -21.7%, -32.2%[inhibitor], 18.9%
C/C(=N\NS(=O)(=O)c1ccc(C)cc1)c1ccc(Br)s1
 : -3.5%[38.3 µM], 2.2, -1.7, 2.0%, 17.8%, 7.2%, 3.9%
Cc1ccccc1OCC(=O)Nc1cnn(CCCC(=O)O)c1
 : -1.1%, 2.0, -3.4, x, 18.8%, 12.8%, -5.4%

Compound activity deposited in PubChem by National Center for Advancing Translational Sciences (NCATS).
